# T cruzi repl = blocks replication of Trypanosoma cruzi; T. cruzi beta-gal in NIH3T3, luminescence, 90 h; inhibition, % (no concentration beside the values); 300,000 tested, 1.4% active; AID 1885;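 active means mean inhibition across valid replicates above about 55%, limit read from the data; inconclusive means mean below that limit but half or more replicates reach it; inactive means mean below it, under half of replicates reach it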;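 further: signal also drops with host cell toxicity which is not excluded here; 0% = plate median of DMSO wells and 100% = zero luminescence signal; higher percent means less beta-gal luminescence so fewer parasites; stock transfer was 50 nL into about 50 µL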
# LANA-H2A inh = blocks KSHV LANA binding to histone H2A/H2B; inhibition, % (no concentration beside the values); Q9QR71; 320,000 tested, 0.6% active; cell-free LANA-H2A/H2B peptide, fluorescence polarization; in the data active means inhibition mostly above about 10%, no sharp cut-off; inactive means mostly below about 6.7%;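 further: stock transfer was 7.5 nL into about 10 µL; 0% = median of vehicle wells and 100% = median of positive control wells; one replicate is shown; the record names a cut of 25% in any replicate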
# Calb FLC = C. albicans growth modulation with fluconazole | C. albicans CaCi-2 (fluconazole-resistant clinical isolate) + fluconazole, Alamar Blue growth, 48 h | AID 1979 | growth inhibition, % (no concentration beside the values) | 300,000 tested, 0.57% active;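 active means most replicates above 75%; inconclusive means exactly half above 75%; inactive means most below 75%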;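 further: all wells also contain fluconazole at 8 µg/ml as a sub-toxic cotreatment; 0% = median of DMSO wells and 100% = median of geldanamycin control wells; wells of about 8 µL received 7.5 nL stock; the first replicate is given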
# Beta2AR agonist = human beta-2 adrenergic receptor agonism by FAP | Am2.2-beta2AR cells, FAP receptor internalization, flow cytometry; reference of the scale not given here | response, % (no concentration beside the values) | 340,000 tested, 0.43% active | AID 504454;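 active means response above a set limit, near 3 SD of response in nonfluorescent compounds, cut at about 42% in these data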;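 further: stock transfer was 100 nL into about 11 µL; a reference agonist was the positive control; negative values mostly stem from fluorescent compounds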
# Target sequence (P07550 whole entry, looked up): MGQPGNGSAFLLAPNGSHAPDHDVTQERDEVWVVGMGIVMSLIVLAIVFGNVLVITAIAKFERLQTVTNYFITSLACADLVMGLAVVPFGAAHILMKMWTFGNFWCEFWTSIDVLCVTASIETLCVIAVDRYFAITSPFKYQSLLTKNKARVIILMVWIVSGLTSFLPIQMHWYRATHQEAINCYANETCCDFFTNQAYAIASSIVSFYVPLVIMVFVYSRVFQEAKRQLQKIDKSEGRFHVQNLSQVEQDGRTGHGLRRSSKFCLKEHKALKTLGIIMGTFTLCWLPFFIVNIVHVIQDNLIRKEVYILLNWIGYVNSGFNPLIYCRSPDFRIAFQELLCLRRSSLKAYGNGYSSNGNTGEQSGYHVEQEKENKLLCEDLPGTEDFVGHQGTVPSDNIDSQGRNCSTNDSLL
# Beta apoptosis = beta cell apoptosis inhibition; INS-1E cytokine-induced death, ATP luminescence, 48 h; percent of positive-control rescue, neutral wells zero; protection from apoptosis, % (no concentration beside the values); 300,000 tested, 0.8% active; AID 435005;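 active means all replicates at 75% or more, or half of them and the mean; inconclusive means half reach 75% but not the mean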;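 further: 0% = cytokine-treated negative control wells and 100% = positive control rescue; higher means more ATP so stronger rescue from cytokine killing; wells of about 40 µL received 100 nL stock; the first replicate is given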
# UCH37 DUB inh = inhibitors of human deubiquitinating enzyme UCH37. inhibition, % (concentration not given with the values). Q9Y5K5. purified proteasome/UCH37, Ub-AMC cleavage fluorescence. 330,000 tested, 0.33% active;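 active means mean of two replicates above 20%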;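 further: 0% = compound-free wells with enzyme and 100% = wells lacking proteasome; stock transfer was 100 nL into about 20 µL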
# Target sequence (Q9Y5K5 whole entry, looked up): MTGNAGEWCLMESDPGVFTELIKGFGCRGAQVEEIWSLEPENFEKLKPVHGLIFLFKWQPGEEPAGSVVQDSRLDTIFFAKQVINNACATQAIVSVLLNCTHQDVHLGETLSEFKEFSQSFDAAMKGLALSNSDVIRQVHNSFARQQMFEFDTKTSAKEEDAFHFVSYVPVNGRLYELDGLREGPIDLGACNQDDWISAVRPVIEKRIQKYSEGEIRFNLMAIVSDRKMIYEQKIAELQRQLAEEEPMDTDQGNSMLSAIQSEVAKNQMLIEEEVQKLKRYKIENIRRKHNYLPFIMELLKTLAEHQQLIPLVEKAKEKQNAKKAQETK
#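 Assay system: Proteasome-bound UCH37. Buffer or medium: pH 7.4 Tris-HCl (50 mM) with ovalbumin, ATP-MgCl2, DTT. Incubation: 30 min preincubation with enzyme, 25 min cleavage at room temperature. Measured by: fluorescence, ex 355 nm, em 460 nm. Read-out basis: percent inhibition. Control set: wells without proteasome as full block, compound-free enzyme plus substrate as uninhibited.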
# RanGTP-Imp inh = inhibitors of RanGTP-importin-beta interaction, primary screen, biochemical, FRET, CFP-Ran, YFP-importin-beta, homogeneous; inhibition, % (no concentration beside the values); AID 2216; 300,000 tested, 1.1% active; cell-free CFP-Ran/YFP-importin-beta FRET ratio;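 active means most replicates above 15%; inconclusive means exactly half above 15%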;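 further: 0% = DMSO wells and 100% = Ran loaded with GDP instead of GTP; wells of about 40 µL received 100 nL stock; the first replicate is given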
# Bfl-1 A1 inh = inhibitors of the anti-apoptotic protein A1, read as caspase activation; MEF A1-2A-BIM cells, Caspase-Glo 3/7 luminescence, 3 h; percent of clofoctol response, vehicle zero; caspase activation, % (test concentration not listed); 330,000 tested, 0.066% active;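 active means over half of replicate activation scores above 10%, or exactly half above 10 with the replicate mean above 10; inconclusive means replicate mean below 10 yet half the replicates above 10; inactive means over half of replicates below 10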;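 further: wells of about 30 µL received 50 nL stock; many hits fall short of the cut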
# Numbers without * were called inactive; i = inactive; u = inconclusive; x = not tested or not shown.
# Second line of a record: T cruzi repl	LANA-H2A inh	Calb FLC	Beta2AR agonist	Beta apoptosis	UCH37 DUB inh	RanGTP-Imp inh	Bfl-1 A1 inh
- CCN1C(=O)c2cccc3c(S(=O)(=O)NC(Cc4ccccc4)C(=O)O)ccc1c23 (stereo unspecified)
    -7	-0.5	-2	1	0	-196	12	0.7
- Cn1c(SCC(=O)N/N=C/c2ccc([N+](=O)[O-])s2)nnc1-c1ccc(Cl)cc1
    51	3.3	1	-5	89*	x	-1.4	-0.3
- COc1ccc(CNC(=O)C/C(C)=N/NC(=O)C(c2ccccc2)c2ccccc2)cc1
    8	-3.4	-10	4	-5	x	-3.6	0.2
- COc1ccc(C(C)=O)c2c(O)cccc12
    -11	0.5	5	0	1	1.5	9.4	1.8
- O=C(CSc1nc2ccccc2c(=O)[nH]1)N1CCN(c2ccccc2F)CC1
    -3	0.6	-5	7	-3	0.6	-1.3	-0.2
- CS(=O)(=O)Nc1nnc(C2CCCC2)s1
    -17	-1.8	15	-3	0	3.8	7.7	0.3
- O=C(CSc1ccc2c(c1)OCCO2)Nc1ccc(Cl)cn1
    -5	-5.6	14	-3	-7	0.7	0.5	-0.1
- CC(C)Cn1c(N)c(C(=O)COC(=O)c2cc(C3CC3)nc3ccccc23)c(=O)n(C)c1=O
    x	5.6	x	x	9	-0.1	x	-1.3
- CCOc1cccc(-c2nnc(SCC(=O)NC3CC3)n2C)c1
    -14	-9.1	-1	6	-2	-0.3	-1.7	-0.4
- COc1cc2c(cc1NC(=O)COC(=O)/C=C/c1ccc([N+](=O)[O-])cc1)oc1ccccc12
    -10	-5.6	1	5	-9	2.0	-2.7	0.7
- Cc1ccc(SCCNS(=O)(=O)c2ccc3c(c2)OCCO3)cc1
    9	-4.0	-3	-5	-3	2.8	3.5	-0.8
- COC(=O)c1ccc2c(c1O)C(=O)c1ccccc1C2=O
    -14	-0.8	1	3	16	4.5	-5.1	-5.9
- CCN(C[C@H]1N[C@@](C)(C(=O)OC)[C@H]2C(=O)N(Cc3ccccc3)C(=O)[C@@H]12)C(=O)Nc1ccc(C)cc1
    x	i	x	-13	-9	0.7	x	-0.2
- O=C(Cc1csc(-c2ccccc2)n1)NCC(=O)Nc1ccc(F)c(F)c1F
    x	-1.2	x	-8	0	4.3	x	0.3
- COCCNC(=S)N1CCC(NC(=O)c2ccco2)CC1
    -4	-1.8	-31	-4	-4	-1.0	4.1	1.3
- COC(=O)CSc1nc(C)c(Oc2ccccc2)c(=O)[nH]1
    -9	-1.6	-2	14	-4	5.6	6.2	0.9
- COc1cc(S(=O)(=O)Nc2ccccc2C)ccc1NC(=O)c1ccncc1
    10	1.0	-1	-4	0	x	u	-0.3
- CCOc1cc(CNc2ccc3[nH]c(=O)[nH]c3c2)ccc1OCC(=O)NC(C)(C)C
    -5	1.4	-3	1	-2	-0.4	u	-0.2
- C=COCCn1c(=N)n(CCC)c2ccccc21
    1	-2.9	8	-3	0	1.1	0.4	0.3
- Cc1cccc(N=C2NC(=O)S/C2=C\c2ccco2)c1
    -2	5.9	9	0	-5	1.2	-4.5	0.3
- COc1ccc(CCNC(=O)c2nnn(CC(=O)Nc3ccc(C)cc3C)c2N)cc1OC
    -6	-0.4	7	-3	-1	10	3.6	-0.6
- CCCc1nnc(NC(=O)C(=O)NCCN(C)C)s1
    -6	x	2	-2	x	x	2.1	x
- C/C(=N\OC(=O)c1ccc(Br)cc1)c1ccccn1
    -10	-1.8	10	2	2	x	-2.9	-0.5
- N#Cc1nc(-c2ccco2)oc1NCCc1ccccc1
    0	7.3	27	-3	7	-8.2	1.8	-1.2
- c1ccc(-n2nnnc2-c2cnc(-c3cccnc3)nc2-c2cccs2)cc1
    38	2.0	17	-6	7	-1.2	17*	0.1
- COc1ccc(N2C(=O)NC3CC2(C)Oc2ccccc23)cc1OC (stereo unspecified)
    -5	-1.8	6	-5	3	0.7	0.7	u
- Cc1ccc(C)c(NC(=O)CSc2nnc(CNC(=O)c3ccco3)o2)c1
    -24	-2.4	-4	-4	7	2.0	4.4	-0.6
- CN(Cc1ccccc1)C(=O)COC(=O)C1=NNC(=O)CC1
    -8	-3.4	u	6	-4	4.0	-1.2	0.0
- Cc1ccc(S(=O)(=O)NCCOc2nc(N(C)C)nc(N3CCOCC3)n2)cc1
    2	-1.1	u	11	2	1.8	3.5	-0.3
- Cc1cccc(C)c1NC(=O)CN(C)C(=O)C1CCCCC1
    x	-3.1	x	-4	-6	1.1	x	-0.7

# Three of the entries above in order of their number in UCH37 DUB inh, low to high.
canonical_smiles	LANA-H2A inh	Beta2AR agonist	UCH37 DUB inh	RanGTP-Imp inh
c1ccc(-n2nnnc2-c2cnc(-c3cccnc3)nc2-c2cccs2)cc1	2.0	-6	-1.2	17*
COCCNC(=S)N1CCC(NC(=O)c2ccco2)CC1	-1.8	-4	-1.0	4.1
Cc1ccc(S(=O)(=O)NCCOc2nc(N(C)C)nc(N3CCOCC3)n2)cc1	-1.1	11	1.8	3.5

# Other compounds follow:
# Second line of a record: T cruzi repl	LANA-H2A inh	Calb FLC	Beta2AR agonist	Beta apoptosis	UCH37 DUB inh	RanGTP-Imp inh	Bfl-1 A1 inh
- COCC(C)NC(=O)c1cccc(Cl)c1 (stereo unspecified)
    -5	4.6	-1	3	-1	3.1	1.3	0.3
- COc1ccc(Cl)cc1NC(=S)NNC(=O)CC(C)C
    -4	-1.8	-4	5	2	0.3	0.2	-0.4
- COc1ccc(Cl)cc1NC(=O)c1cc(S(=O)(=O)N2CCCC2)cn1C
    5	4.0	-12	-6	1	0.6	-3.9	1.2
- CCNC(=S)NNC(=O)Cc1ccccc1
    -33	-3.5	13	38	-2	3.8	5.4	-0.2
- OCc1c[nH]c2ccccc12
    x	-12	x	0	-1	-1.5	x	0.9
- COCCCNC(=S)N1CCN(c2ccc([N+](=O)[O-])cc2)CC1
    -9	0.9	-2	-8	3	11	-1.5	0.1
- COc1ccc(N2CC(C(=O)Nc3nc4ccc(OC)cc4s3)CC2=O)cc1 (stereo unspecified)
    -12	12	17	-1	x	1.4	-2.4	-1.1
- Cc1ccc(S(=O)(=O)N2CCCC2C(=O)OCc2ccco2)cc1 (stereo unspecified)
    -13	-6.8	11	-8	-8	1.0	2.7	0.8
- CCCCC(=O)N(Cc1ccc2c(c1)OCO2)Cc1nc2ccccc2c(=O)[nH]1
    -9	-0.1	48	-3	3	4.0	-1.4	0.7
- Cc1c(O)nc2ccccn2c1=O
    -17	0.6	-11	-4	1	1.3	1.0	0.4
- COC(=O)[C@H](Cc1ccccc1)NC(=O)Nc1ccc(C)cc1
    8	-0.7	11	6	7	0.9	-3.9	-0.2
- CC(C)(CNS(=O)(=O)c1ccc(Br)s1)N1CCOCC1
    x	4.3	x	-6	-3	3.7	x	1.0
- CCCc1[nH]nc2c1C(c1ccc(OC(=O)N3CCOCC3)cc1)C(C#N)=C(N)O2 (stereo unspecified)
    -17	9.2	-11	9	-16	-0.3	4.2	0.0
- O=C(N/C=C/c1ccco1)OCc1ccccc1
    -16	-1.0	-4	-4	-11	2.6	3.7	0.4
- COc1ccc(Cn2c(=S)[nH]c3cc(C(=O)NCc4cccnc4)ccc3c2=O)cc1
    3	1.8	1	5	11	-1.9	0.3	1.3
- COc1ccc2nc(NC(=O)CSCc3c(C)noc3C)sc2c1
    -2	1.7	14	-1	5	5.2	2.1	0.2
- O=C(O)c1ccccc1/C=N/NC(=O)C1CCCC1
    -8	-1.2	-5	-11	-13	x	0.4	-0.1
- COCCCNc1nc2c(-c3ccc(C)cc3)nnn2c2ccccc12
    37	-2.9	5	16	-4	-129	u	-0.3
- Cc1ccc(NC(=O)CN(C)C(=O)c2ccc(Cl)nc2)cc1
    -6	-0.5	0	4	-5	1.3	2.0	0.6
- CSc1nsc(/C=C/Nc2ccc(C)cc2)c1C#N
    30	-1.1	-1	3	2	-3.5	24*	0.5
- CC1=C(C(=O)OC(C)C)C(c2cccs2)NC(=S)N1 (stereo unspecified)
    -10	4.9	4	0	-7	4.3	1.7	-1.5
- CNC(=S)N/N=C/c1c(C)c(C(=O)c2ccc(F)cc2)n2ccccc12
    9	-0.1	23	5	10	x	0.7	-0.5
- COc1cc(S(=O)(=O)Nc2ccccc2)ccc1N=Cc1c(C)[nH]n(-c2ccc(C)cc2)c1=O
    7	-7.5	-15	x	17	x	-4.0	0.5
- CCOC(=O)C1=C(c2ccccc2)OC(N)=C(C#N)C1c1cccs1 (stereo unspecified)
    8	0.9	-6	0	2	2.7	x	0.7
- O=C(O)c1cc(Nc2nc(N3CCOCC3)nc(N3CCOCC3)n2)ccc1Cl
    -11	0.9	-12	-2	-3	4.7	2.4	0.1
- CN(C)c1cccc(NC(=O)NC2(C)CCS(=O)(=O)C2)c1 (stereo unspecified)
    4	x	7	-4	x	3.4	-4.1	x
- COc1ccc(/C=N/NC(=O)Cn2cc(C(F)(F)F)ccc2=O)cc1
    -7	-0.3	-14	-4	-4	x	-1.4	-0.3
- O=C(CN1CCN(S(=O)(=O)c2ccccc2)CC1)Nc1ccccc1Cl
    10	-4.2	7	2	x	3.5	1.1	1.1
- CSc1nnc(-c2cc(Br)ccc2N=Cc2c(C)[nH]n(-c3ccccc3)c2=O)c(=O)[nH]1
    -16	-2.3	-19	0	2	8.7	0.4	-0.3
- CCOC(=O)CC1COCCN1C(=O)c1ccc2oc(Cc3ccccc3)nc2c1 (stereo unspecified)
    1	3.8	-6	0	4	x	1.0	-0.5
- Cc1nc(SCC(=O)Nc2cc(Cl)ccc2[N+](=O)[O-])nc(C)c1C
    -5	7.6	-6	-2	6	2.7	-1.0	0.0
- COc1ccc2nc(C)cc(N/N=C/c3ccccc3)c2c1
    x	5.6	x	47*	96*	x	x	-1.3
- COc1cc2c(cc1OC)C(C)N(C(=S)NC(=O)c1ccccc1)CC2 (stereo unspecified)
    -19	2.3	9	3	0	-0.5	7.4	-0.5
- CC(=O)Nc1nc(Cn2nnc(-c3ccc4c(c3)OCO4)n2)nc(N(C)C)n1
    2	2.2	-22	-4	-21	x	0.4	0.1
- CCOC(=O)N1CCN(C(=O)CSc2ccc3nnc(-c4cccnc4)n3n2)CC1
    -11	3.5	-5	-2	2	-1.9	0.1	0.3
- COC(=O)c1ccc(COC(=O)CSCC(=O)Nc2ccc(C)cc2C)cc1
    x	9.8	x	1	-5	0.5	x	1.2
- COc1ccc(S(=O)(=O)N2CCCCC2)cc1NC(=O)CCCNC(=O)c1ccc(Cl)cc1
    x	2.4	x	2	1	2.1	x	-0.2
- CCc1nc(C)c(C(=O)N2CCCC(C(=O)Nc3cccc(-c4cccc(C)c4)c3)C2)o1 (stereo unspecified)
    16	0.0	8	9	-4	1.9	5.6	0.2

# Compound activity deposited in PubChem BioAssay by several laboratories.

# This is a random part of the collection; about 4.3% have a hit in one of these screens.
